YopH PTP inh = YopH tyrosine phosphatase inhibitors, primary screen, biochemical, fluorescence Ex485/Em525 | 140,000 compounds, 0.16% hits | AID 898, 2007 | inhibition, %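 (about 10 µM by stock and volumes)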 | YopH tyrosine phosphatase [Yersinia enterocolitica];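 active = inhibition of 50% or more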;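 note: controls were vehicle for no effect and minimum signal wells for full effect; inactives centre near -20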
RecA intein inh = Mtb RecA intein splicing inhibitors, primary screen, biochemical, fluorescence, HTS; Protein RecA (Mycobacterium tuberculosis (strain ATCC 25618 / H37Rv)), P9WHJ3; cell-free RecA intein splicing; inhibition, %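 (about 9 µM by stock and volumes)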; 290,000 compounds, 0.75% hits; AID 2221, 2009; in the data active = inhibition above about 30%; inconclusive = no clear call, values can overlap the other calls;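 note: 0% = vehicle wells and 100% = reference inhibitor control wells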
Target sequence (P9WHJ3 whole entry, looked up): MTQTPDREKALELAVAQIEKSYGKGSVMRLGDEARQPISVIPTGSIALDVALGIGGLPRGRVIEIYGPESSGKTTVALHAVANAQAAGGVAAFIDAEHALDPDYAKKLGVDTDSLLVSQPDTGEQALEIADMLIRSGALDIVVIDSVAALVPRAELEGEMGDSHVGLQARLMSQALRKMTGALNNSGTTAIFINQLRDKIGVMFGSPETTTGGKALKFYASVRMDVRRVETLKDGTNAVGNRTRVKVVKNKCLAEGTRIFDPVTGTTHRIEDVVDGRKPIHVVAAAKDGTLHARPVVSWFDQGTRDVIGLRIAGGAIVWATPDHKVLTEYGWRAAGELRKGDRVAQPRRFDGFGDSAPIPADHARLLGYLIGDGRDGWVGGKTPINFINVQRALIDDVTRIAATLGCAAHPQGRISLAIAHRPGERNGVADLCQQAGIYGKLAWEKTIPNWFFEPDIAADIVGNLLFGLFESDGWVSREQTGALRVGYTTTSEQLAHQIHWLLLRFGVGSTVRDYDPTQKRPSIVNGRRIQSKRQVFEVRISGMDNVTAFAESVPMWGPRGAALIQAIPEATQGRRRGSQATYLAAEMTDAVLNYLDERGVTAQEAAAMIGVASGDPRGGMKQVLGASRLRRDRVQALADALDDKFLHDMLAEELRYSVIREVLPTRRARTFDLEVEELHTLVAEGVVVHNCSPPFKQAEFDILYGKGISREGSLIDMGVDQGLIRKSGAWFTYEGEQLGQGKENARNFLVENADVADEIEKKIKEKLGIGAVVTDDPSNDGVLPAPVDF
Arbovirus anti = antivirals against arbovirus infection, primary screen, cell-based, full library, 10K replicate subset | inhibition, % at 10 µM | arbovirus infection cell-based antiviral screen | 200,000 compounds, 0.37% hits;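 active = inhibition from about 30%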;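 note: bluetongue infection of BSR cells; cell survival read as ATP light after 72 h; 0% = infected wells without compound and 100% = uninfected wells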
Mtb betalactam = beta-lactam sensitization of Mtb H37Rv, H37Rv | 330,000 compounds, 0.27% hits | inhibition, % at 25 µM | M. tuberculosis H37Rv growth with meropenem, percent inhibition; hits of this screen are not shown here;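 active = about 74% or more and at least 40 points above the plate without the antibiotic, then above 30% in a dose series; inconclusive = first-round hits that could not be retested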;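 note: growth measured after seven days incubation then overnight dye step; 0% = bacteria only wells and 100% = bacteria with antibiotic; twin plates without the antibiotic show which effects depend on it; some results filed as inactive read as strong as hits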
Mtb H37Rv = M. tuberculosis H37Rv growth inhibitors, H37Rv strain (AID 1626); 220,000 compounds, 0.95% hits; M. tuberculosis H37Rv growth inhibition; higher % means a stronger effect; inhibition, % at 10 µM; hits with a dose series show IC50 in µM;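 active = confirmed in a dose series; inconclusive = inhibition above 80% but not taken into the dose series; inactive = below 80% or under 30% at every dose of the series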;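 note: bacteria incubated seven days before Alamar blue readout; 0% = bacteria only wells and 100% = bacteria with antibiotic wells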
Arbovirus anti repeat = also measured in Arbovirus anti; calls as there; inhibition, %; measured here: 10K subset replicate screen; many hits read low in the repeat;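 first of two repeat runs on a subset; 0% = infected and 100% = uninfected wells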
An asterisk follows results filed as active; u = inconclusive; x = not tested or not shown. Some of the compounds tested; count on the stated rates, not on these rows.

SMILES	YopH PTP inh	RecA intein inh	Arbovirus anti	Mtb betalactam	Mtb H37Rv	others
O=C(CCN1C(=O)/C(=C/c2cccs2)SC1=S)NC1=NCCS1	-25.0	x	4.7	7.0	3.9%
Cc1[nH]n(-c2ccccc2)c(=O)c1N=Nc1cccc(S(=O)(=O)N2CCOCC2)c1	-27.8	-0.2	-8.8	-2.8	-2.3%
O=C(/C=C/c1ccc(Cl)cc1Cl)N(Cc1ccc(Cl)cc1)C1CCS(=O)(=O)C1 (stereo unspecified)	-15.6	-2.7	1.5	2.7	4.9%
Cn1c(/C(C#N)=C(\O)c2ccc([N+](=O)[O-])cc2)nc2ccccc21	x	-1.4	-1.7	2.7	10.4%
O=C(O)CCC(=O)Nc1nc2nccc(-c3ccccc3)n2n1	x	-0.4	x	-4.3	-5.5%
COC(=O)C1=C(C)N(CC2CC2)C(=O)N[C@H]1c1ccc(Br)cc1	-21.3	x	2.9	-11.1	0.9%
O=C(NNc1ncnc2c1cnn2-c1ccc(F)cc1)c1cccs1	x	-1.3	10.2	0.7	-2.3%
CC(C)(C)n1nc2c(c1NC(=O)c1ccc(Cl)c([N+](=O)[O-])c1)CS(=O)(=O)C2	x	-1.5	x	8.8	x
COc1ccc(NC(=O)CS(=O)CC(=O)Nc2ccc(-n3cnnn3)c(C)c2)cc1 (stereo unspecified)	x	-1.0	x	-9.2	x
O=c1c2ccccc2nc2n1CC/C2=C\N1CCN(c2ccc([N+](=O)[O-])cc2)CC1	x	-0.5	x	-5.9	x
CCOC(=O)C(=O)NCC(c1cccs1)S(=O)(=O)c1ccc(C)cc1 (stereo unspecified)	x	-2.8	x	-16.2	x
COc1ccc(OC)c(S(=O)(=O)N/N=C\c2ccc3c(c2)OCO3)c1	x	1.4	x	0.5	x
O=C(CCCOc1ccccc1)Nc1cccc([N+](=O)[O-])c1	x	0.4	-7.1	4.6	0.6%
CCOC(=O)/C(C#N)=C\N(C)C	-19.9	-0.9	3.8	-4.7	x
COc1ccc(C(=O)/C=C/c2ccccc2)c(O)c1	x	5.8	-6.2	12.6	6.5%	Arbovirus anti repeat=-20.4
C=CCN1C(=O)C(CC(=O)Nc2ccccc2)SC1=Nc1c(C)n(C)n(-c2ccccc2)c1=O (stereo unspecified)	-11.4	2.2	3.9	-4.1	-7.2%
O=c1[nH]cc(F)c(=O)[nH]1	-41.6	0.5	2.4	100.1	u
CCCn1c(=O)c2ccccc2n2c(SCc3c(C(=O)OCC)oc4ccccc34)nnc12	-15.8	x	-6.8	11.3	1.2%
CC1(C)Cc2c(sc3nc(SCC(=O)NCc4ccccc4)n(-c4ccccc4)c(=O)c23)CS1	-93.5	-0.8	-6.1	83.9	-17.8%
CC(=O)Nc1ccc(S(=O)(=O)NCCC(=O)OCc2ccc([N+](=O)[O-])cc2)cc1	x	-2.1	x	-10.7	x
OCCOCCNc1ncnc2c1cnn2-c1ccccc1	-52.7	-12.2	-4.4	5.8	0.3%
O=C(CSc1nnc(CNc2ccc(F)cc2)o1)N1c2ccccc2Sc2ccccc21	-33.0	3.6	-10.8	u	-2.5%
Cc1cccc(C(=O)Nc2ccc3c(c2)ncn3C)c1	x	-0.1	x	-5.8	x
CC(OC(=O)c1ccc(S(=O)(=O)N(C)C)cc1)C(=O)Nc1ccc(Cl)cn1 (stereo unspecified)	x	3.6	-2.9	-2.1	0.1%
CSc1nc(Oc2ccccc2)c2sccc2n1	-5.2	3.6	9.1	7.3	4.1%

Reprinted at random: 5 compounds from above, in no set order.
SMILES	YopH PTP inh	RecA intein inh	Arbovirus anti	Mtb betalactam	Mtb H37Rv	others
O=C(NNc1ncnc2c1cnn2-c1ccc(F)cc1)c1cccs1	x	-1.3	10.2	0.7	-2.3%
Cc1cccc(C(=O)Nc2ccc3c(c2)ncn3C)c1	x	-0.1	x	-5.8	x
CC(=O)Nc1ccc(S(=O)(=O)NCCC(=O)OCc2ccc([N+](=O)[O-])cc2)cc1	x	-2.1	x	-10.7	x
COc1ccc(OC)c(S(=O)(=O)N/N=C\c2ccc3c(c2)OCO3)c1	x	1.4	x	0.5	x
COc1ccc(NC(=O)CS(=O)CC(=O)Nc2ccc(-n3cnnn3)c(C)c2)cc1 (stereo unspecified)	x	-1.0	x	-9.2	x

An excerpt from above in order of heavy-atom count, descending.
SMILES	YopH PTP inh	RecA intein inh	Arbovirus anti	Mtb betalactam	Mtb H37Rv	others
C=CCN1C(=O)C(CC(=O)Nc2ccccc2)SC1=Nc1c(C)n(C)n(-c2ccccc2)c1=O (stereo unspecified)	-11.4	2.2	3.9	-4.1	-7.2%
CC(C)(C)n1nc2c(c1NC(=O)c1ccc(Cl)c([N+](=O)[O-])c1)CS(=O)(=O)C2	x	-1.5	x	8.8	x
COc1ccc(C(=O)/C=C/c2ccccc2)c(O)c1	x	5.8	-6.2	12.6	6.5%	Arbovirus anti repeat=-20.4
O=c1[nH]cc(F)c(=O)[nH]1	-41.6	0.5	2.4	100.1	u

Further compounds
SMILES	YopH PTP inh	RecA intein inh	Arbovirus anti	Mtb betalactam	Mtb H37Rv	others
CC1=NN(C(N)=S)C(=O)C1N=Nc1c(Cl)cc([N+](=O)[O-])cc1Cl (stereo unspecified)	x	4.6	x	7.5	x
CCc1ccc(S(=O)(=O)Nc2c(NC3CCCCC3)c3ccccc3oc2=O)cc1	x	0.4	x	-9.4	x
CCC(=O)Nc1nnc(CCc2ccccc2)s1	-21.2	-0.2	-8.2	-13.9	9.8%
CC12CCC(=O)N1C(C(=O)NCc1ccccc1F)CS2 (stereo unspecified)	x	1.4	x	-4.1	x
CC(=O)N1CC[n+]2c(-c3ccc([N+](=O)[O-])cc3)csc21	x	-1.5	x	-0.4	-2.2%
COc1cc(OC)cc(C(=O)Nc2ccc(S(=O)(=O)Nc3nc(C)cc(C)n3)cc2)c1	x	0.8	4.1	-2.5	-4.8%
O=C(NCCN1CCN(c2cccc(Cl)c2)CC1)Nc1ccccc1	x	-0.3	x	u	x
CC1Cc2ccccc2N1C(=O)CSc1nccc(=O)[nH]1 (stereo unspecified)	x	-0.4	9.2	-7.9	-1.6%
CCOc1ccc2ccccc2c1CNCCc1ccc(S(N)(=O)=O)cc1	x	4.4	x	-6.6	x
Cc1cc(C)c(C(=O)NC2CC(C)(C)Cc3c2cnn3-c2ccccc2)o1 (stereo unspecified)	x	5.6	x	0.6	x
Cc1cc(NC(=O)c2sccc2C)n(-c2nc3ccccc3[nH]2)n1	x	5.4	-13.0	59.8	<0.391µM*
Cc1ccc(-c2csc(N3CCN(c4cc5c(cc4Cl)nc(-c4ccncc4)n5CCN4CCCCC4)CC3)n2)cc1	x	9.5	x	91.0	x
COc1ccc(CC(NC(C)=O)C(=O)NC2CCN(C(=O)NCc3ccccc3)CC2)cc1 (stereo unspecified)	-24.6	0.0	2.6	-6.6	-5.9%
COc1ccc2nc(NCc3ccccc3)[nH]c2c1	-54.4	-0.9	-16.6	-9.1	0.8%
CC(C)(C)SCCNS(=O)(=O)c1ccccc1	-39.8	-2.4	1.6	-5.8	1.7%	Arbovirus anti repeat=9.8
CCCc1cc(=S)n2c([nH]c3ccccc32)c1C#N	x	-45.0	x	-0.2	2.6%
O=C(O)Cn1cc(C(=O)C(F)(F)F)c2ccccc21	x	x	-0.1	4.9	-0.3%
CCCNC(=O)CSc1nnc(C)s1	21.8	x	7.6	-6.0	-8.4%
CCOC(=O)N1CCN(C(=O)CSc2nc(=O)n3cccc(C)c3n2)CC1	x	-0.4	x	-6.7	x
CC(=O)c1cccc(-n2c(CCC(=O)O)ccc2-c2cccs2)c1	-34.0	-3.0	-0.3	1.3	-8.8%
COC(=O)C1=C(N)Oc2c(oc(CO)cc2=O)C1c1ccc(F)cc1 (stereo unspecified)	x	-2.1	x	16.8	-8.0%
C=CCC1(CC=C)CCCN1C(=O)c1cc(COc2ccc(C)nc2)on1	x	-1.9	x	6.2	x
CCOC(=O)C(C(=O)Nc1ccccc1)C1CCCCC1 (stereo unspecified)	-55.0	1.4	11.7	8.3	-2.3%	Arbovirus anti repeat=1.8
COc1ccc(/C=N/Nc2ncc(C(F)(F)F)cc2Cl)c(OC)c1OC	-9.4	-5.9	3.8	1.9	2.9%
Cc1ccc(SCc2nc(N)nc(Nc3ccccc3C)n2)c(C)c1	-15.3	5.2	-0.5	4.6	10.6%

The closing two records of the section above lead into the next:
SMILES	YopH PTP inh	RecA intein inh	Arbovirus anti	Mtb betalactam	Mtb H37Rv	others
COc1ccc(/C=N/Nc2ncc(C(F)(F)F)cc2Cl)c(OC)c1OC	-9.4	-5.9	3.8	1.9	2.9%
Cc1ccc(SCc2nc(N)nc(Nc3ccccc3C)n2)c(C)c1	-15.3	5.2	-0.5	4.6	10.6%
COc1ccc(C2(c3ccc(OC)cc3)NC(=O)NC2=O)cc1	x	1.4	x	5.7	x
CC(=O)Oc1ccccc1C1OCCN1C(C)=O (stereo unspecified)	-18.8	0.2	0.0	-6.7	-8.7%
COc1cc2c(cc1Cl)/C(=C\CCN(C)C)c1ccccc1S2	20.8	8.3	-33.8	36.6	7.6%
COC(=O)CCC(=O)Nc1ccc(OC)cc1	8.6	-1.1	-3.0	0.7	1.4%	Arbovirus anti repeat=3.0
COC(=O)c1ccc(CNC(=O)/C=C/c2cc([N+](=O)[O-])ccc2OC(F)F)cc1	-16.3	0.8	0.7	-23.9	2.4%
CSc1ccc(-c2c(C#N)c(N)nc3c2c(C)nn3-c2ccccc2)cc1	-47.3	-0.9	-9.3	8.2	-9.7%
COC(=O)c1ccc2nc(-c3ccc(S(C)(=O)=O)cc3)cn2c1	x	-4.3	15.6	7.3	-2.0%
Cc1ccccc1NS(=O)(=O)c1cc2c3c(c1)CC(=O)N3CCC2	x	2.2	x	1.8	x
[2H]c1c([2H])c([2H])c(C(=O)c2sc(N3CCCCCC3)nc2-c2ccccc2)c([2H])c1[2H]	-23.1	6.1	-2.3	21.6	x
O=C(CCC(=O)n1ncc2ccccc21)N1CCCCC1	x	0.8	x	5.9	x
O=C(NC1CC1)c1ccc(-c2nc3ccccc3s2)s1	-36.5	-5.0	-4.0	90.0	46.3%
CCN(C(=O)CSc1nc2ccccc2o1)C1CCS(=O)(=O)C1 (stereo unspecified)	x	-4.2	x	-1.7	x
CC1CN(C(=S)Nc2ccc(F)cc2F)CC(C)O1 (stereo unspecified)	x	-0.7	x	-6.7	x
CC1=C/C(=N\OS(=O)(=O)c2ccccc2)C=CC1=O	-8.3	20.9	-2.3	91.3	x
Cc1nn2c3c(cnc2c1-c1ccccc1)C(=O)CC(c1ccccc1)C3 (stereo unspecified)	-15.2	-2.1	-1.3	0.5	0.1%
COCCN1CCN(C(=O)C2CCC(=O)N(CCc3ccccc3)C2)CC1 (stereo unspecified)	x	0.4	x	-6.3	x
O=C1C2C3C=CC(C3)C2C(=O)N1Cc1cccnc1 (stereo unspecified)	-35.1	-2.4	5.5	-4.2	3.1%
O=C(O)c1cc(NN=Nc2cccc([N+](=O)[O-])c2)cc([N+](=O)[O-])c1	x	0.8	x	-6.7	-4.9%
Cc1ccc(S(=O)(=O)Oc2ccccc2/C=N/O)cc1	x	0.0	-8.3	-0.6	6.5%
O=P(C(Cl)Cl)(N1CCOCC1)N1CCOCC1	x	1.2	x	-0.7	x
COc1cc2c(cc1OC)C(C)N(C(=O)c1c(-c3ccccc3)noc1C)CC2 (stereo unspecified)	x	0.1	x	-4.4	-4.2%
CC(=O)N(Cc1ccccc1)Cc1nc2sc(C)c(C)c2c(=O)[nH]1	x	0.3	4.4	-3.5	-1.0%
COc1cc2[nH]c(=O)n(C3CCCCC3)c(=O)c2cc1OC	-7.3	0.4	-4.5	7.6	1.7%

Screening results as filed in PubChem BioAssay.
